Calb FLC: C. albicans growth modulation with fluconazole; hit rate 0.57% among 300,000; growth inhibition, % (test concentration not listed); C. albicans CaCi-2 (fluconazole-resistant clinical isolate) + fluconazole, Alamar Blue growth, 48 h;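 active = most replicates above 75%; inconclusive = exactly half above 75%; inactive = most below 75%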;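 also: all wells also contain fluconazole at 8 µg/ml as a sub-toxic cotreatment; 0% = median of DMSO wells and 100% = median of geldanamycin control wells; wells of about 8 µL received 7.5 nL stock; the first replicate is given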
ALR H2O2 inh: blocks human ALR sulfhydryl oxidase activity. P55789. purified ALR, DTT oxidation, H2O2 HRP-luminol luminescence. inhibition, % (test concentration not listed). hit rate 3.8% among 290,000;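 active = mean and each replicate at 75% or more; inconclusive = only one of the two met; inactive = neither met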;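 also: stock transfer was 7.5 nL into about 7.5 µL; 0% = neutral wells and 100% = wells with inactivated enzyme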
Target sequence (P55789 whole entry, looked up): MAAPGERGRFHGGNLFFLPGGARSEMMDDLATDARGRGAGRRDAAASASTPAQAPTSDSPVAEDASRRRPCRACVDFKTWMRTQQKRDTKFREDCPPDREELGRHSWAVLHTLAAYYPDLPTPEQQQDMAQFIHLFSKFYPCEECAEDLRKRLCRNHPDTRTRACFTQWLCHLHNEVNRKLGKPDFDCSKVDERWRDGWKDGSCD
RanGTP-Impb inh: inhibitors of RanGTP-importin-beta interaction, primary screen, biochemical, FRET, CFP-Ran, YFP-importin-beta, homogeneous | hit rate 1.1% among 300,000 | cell-free CFP-Ran/YFP-importin-beta FRET ratio | inhibition, % (concentration not given with the values) | AID 2216;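 active = most replicates above 15%; inconclusive = exactly half above 15%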;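 also: 0% = DMSO wells and 100% = Ran loaded with GDP instead of GTP; wells of about 40 µL received 100 nL stock; the first replicate is given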
rRNA inh HTS: inhibits bacterial ribosomal RNA function over humanized ribosomes | hit rate 1.6% among 350,000 | GFP signal change (wild-type ribosome), % (test concentration not listed) | E. coli WT GFP vs humanized-ribosome RFP mutants, fluorescence, 24 h; hits give low values; DMSO median 0, no signal -100;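 active = significant combined selectivity score with lowered wild-type GFP, culture density cut under 30%, mutant RFP and density less affected; inactive = any of these conditions unmet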; also: one replicate is shown; some compounds called inactive have numbers as strong as hits
Beta apoptosis: beta cell apoptosis inhibition; hit rate 0.8% among 300,000; INS-1E cytokine-induced death, ATP luminescence, 48 h; percent of positive-control rescue, neutral wells zero; protection from apoptosis, % (concentration not given with the values);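 active = all replicates at 75% or more, or half of them and the mean; inconclusive = half reach 75% but not the mean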;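 also: 0% = cytokine-treated negative control wells and 100% = positive control rescue; higher means more ATP so stronger rescue from cytokine killing; wells of about 40 µL received 100 nL stock; the first replicate is given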
AF4-AF9 inh: MLL-AF4/AF9 protein interaction inhibition. hit rate 0.47% among 350,000. inhibition, % at 10 µM. AlphaScreen, biotin-AF4 peptide binding to FLAG-AF9. AID 651704. P42568;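 active = every replicate reaching a set inhibition limit, whatever the replicate mean, cut at about 25% in these data; inconclusive = mean inhibition reaches that limit but some replicates miss it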;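 also: 0% = plate neutral control median and 100% = total signal loss; the record names both 10 and 1 µM as test concentration; the first replicate is given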
Target sequence (P42568 whole entry, looked up): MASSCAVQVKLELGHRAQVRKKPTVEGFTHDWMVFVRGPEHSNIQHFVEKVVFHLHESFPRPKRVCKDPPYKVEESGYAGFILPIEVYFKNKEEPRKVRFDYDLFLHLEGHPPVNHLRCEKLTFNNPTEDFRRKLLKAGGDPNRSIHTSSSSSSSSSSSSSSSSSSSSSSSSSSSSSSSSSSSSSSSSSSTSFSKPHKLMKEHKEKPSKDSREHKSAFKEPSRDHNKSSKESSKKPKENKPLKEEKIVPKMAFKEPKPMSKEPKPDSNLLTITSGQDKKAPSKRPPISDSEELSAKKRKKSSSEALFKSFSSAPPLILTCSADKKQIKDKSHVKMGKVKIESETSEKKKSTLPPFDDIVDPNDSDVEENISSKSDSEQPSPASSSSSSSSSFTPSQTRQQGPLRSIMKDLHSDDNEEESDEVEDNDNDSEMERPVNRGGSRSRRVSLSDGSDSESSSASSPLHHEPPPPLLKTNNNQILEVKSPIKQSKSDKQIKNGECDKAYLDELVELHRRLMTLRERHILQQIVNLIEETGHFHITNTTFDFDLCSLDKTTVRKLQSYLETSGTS
T cruzi repl: T. cruzi replication inhibition; T. cruzi beta-gal in NIH3T3, luminescence, 90 h; inhibition, % (no concentration beside the values); hit rate 1.4% among 300,000;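 active = mean inhibition across valid replicates above about 55%, limit read from the data; inconclusive = mean below that limit but half or more replicates reach it; inactive = mean below it, under half of replicates reach it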;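 also: signal also drops with host cell toxicity which is not excluded here; 0% = plate median of DMSO wells and 100% = zero luminescence signal; higher percent means less beta-gal luminescence so fewer parasites; stock transfer was 50 nL into about 50 µL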
FGF22 binding: shifts melting point of recombinant human FGF22; Q9HCT0; recombinant FGF22 thermal shift, SYPRO orange fluorescence; percent of sucrose octasulfate shift, DMSO zero; calls only at 9.99 µM; hit rate 1.5% among 340,000;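 active = melting point raised past a set limit in the mean and every replicate; inconclusive = no clear call; three in four hits are not shown here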
Target sequence (Q9HCT0 whole entry, looked up): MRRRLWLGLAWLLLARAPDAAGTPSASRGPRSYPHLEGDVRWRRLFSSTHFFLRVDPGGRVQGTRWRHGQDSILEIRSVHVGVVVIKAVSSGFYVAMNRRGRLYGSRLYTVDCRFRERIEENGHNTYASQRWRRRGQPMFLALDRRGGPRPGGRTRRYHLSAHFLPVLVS
rRNA inh HTS OD600: also measured in rRNA inh HTS; calls as there; OD600 change, %; measured here: OD600 growth;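 optical density of the mix in the first replicate; 0 = DMSO median and -100 = no signal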
rRNA inh HTS RFP: recorded beside rRNA inh HTS, whose call it bears; RFP signal change, %; measured here: RFP humanized mutant strains;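 first replicate; 0 = DMSO median and -100 = no signal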
Starred values were filed as active, the others as inactive; i = inactive; ? = inconclusive; . = no result given.

Compound	Calb FLC	ALR H2O2 inh	RanGTP-Impb inh	rRNA inh HTS	rRNA inh HTS OD600	rRNA inh HTS RFP	Beta apoptosis	AF4-AF9 inh	T cruzi repl	FGF22 binding
CCNC(=S)N/N=C/c1ccc(OCC(=O)Nc2ccc(C)cc2)cc1	33	-46	3.5	0	1	-2.9	-6	7.3	4	i
Oc1ccc(Br)cc1/C=N/N1CCCCC1	34	5	3.9	.	.	.	-1	.	-17	.
CC1CCN(C(=O)COC(=O)c2ccc(Br)o2)CC1	-3	2	4.0	6	-4	-4.1	-6	4.5	-12	i
CCNc1nc(NCC)nc(N/N=C/c2ccc([N+](=O)[O-])o2)n1	44	-39	-0.5	.	.	.	0	.	47	.
CCOC(=O)c1ccc(COC(=O)c2ccc3c(c2)-c2ccccc2C3=O)cc1	?	-9	6.6	.	.	.	-2	.	-15	.
Cc1ccc(N(C)S(=O)(=O)c2ccc(-c3ccc(=O)[nH]n3)s2)cc1C	-1	1	2.3	5	11	1.8	-4	-0.5	-1	i
COc1ccc(C2=NO[C@@H]3C(=O)N(C4CCCCC4)C(=O)[C@H]23)cc1OC	-3	-2	-1.8	.	.	.	-9	.	-19	.
COc1cccc(-c2nc(Cc3ccc(OC)c(OC)c3)no2)c1	0	-24	1.5	-9	-5	2.7	0	6.0	-4	i
COc1ccc(CC2(C)OC(c3ccc(Cl)cc3)=NN2C(C)=O)cc1 (stereo not drawn)	-7	-3	-0.7	.	.	.	1	.	-11	.
Cc1nc2ccc(S(=O)(=O)NCC(=O)Nc3ccc(F)cc3)cc2s1	-13	10	3.3	14	22	2.7	0	0.1	-9	i
CC(CN1CCNCC1)(NS(=O)(=O)c1ccccc1)c1ccccc1 (stereo not drawn)	1	-4	3.4	.	.	.	3	.	-24	.
O=C(COc1ccccc1[N+](=O)[O-])OCC(=O)c1ccc(Br)s1	.	-5	.	.	.	.	-8	-6.4	.	i
Cc1ccc(/C=N/Nc2ncc(Cl)cc2Cl)s1	-14	1	2.1	-22*	-11*	4.3*	10	-43	7	i
CCn1nc(C)c(CNC(=O)CC2C(=O)NCCN2Cc2ccc(C)o2)c1C (stereo not drawn)	-25	-13	8.2	10	6	1.2	-1	-0.8	7	i
Cc1ccc(C(C)C)c(OCC(=O)OCC(=O)c2c(N)n(C)c(=O)n(C)c2=O)c1	.	.	.	-10	-14	2.8	-4	-6.5	.	i
CCN(CC)CC(=O)NN=C(c1ccccc1)c1ccccc1	?	3	-2.0	.	.	.	-2	.	.	.
COc1ccccc1N(C(=O)c1ccncc1)c1nc(-c2ccc([N+](=O)[O-])cc2)cs1	30	24	-3.3	-10	-8	1.0	15	12	62*	i
Cc1nn(CC(=O)N2CCN(c3ccccn3)CC2)c(=O)c2cc3sccc3n12	1	-3	-1.2	.	.	.	-6	.	-2	.
NS(=O)(=O)c1ccc(NS(=O)(=O)c2ccc(NC(=O)C3CC3)cc2)cc1	-3	9	0.6	2	6	-1.7	-9	-0.5	-5	i
Cc1oc(-c2ccc(Cl)cc2)nc1CS(=O)CC(=O)NCCN1CCCC1 (stereo not drawn)	-4	99*	2.4	3	12	2.8	-9	5.0	-14	i
O=C1OC(c2ccccc2)/C(=C(/O)c2ccc(Cl)cc2)C1=O (stereo not drawn)	?	98*	1.2	.	.	.	-5	.	-8	.
O=C(O)c1ccc(NC(=S)NC2CCCCC2)cc1	-2	23	-0.7	.	.	.	-2	.	-17	.
COc1ccc(Oc2nc(C)cc(C)c2C#N)cc1	6	6	-0.1	.	.	.	-2	.	15	.
CCCCNC(=O)[C@@H]1CCCN1S(=O)(=O)c1cccc2cccnc12	.	-4	.	6	1	1.2	1	.	.	i
CCC(C)NC(=O)Cc1cn(C)c2ccccc12 (stereo not drawn)	-8	.	8.1	.	.	.	5	.	-8	.
COP(=O)(OC)C(Nc1ccc([N+](=O)[O-])cc1)c1ccccc1 (stereo not drawn)	8	0	1.6	-7	0	-1.0	-5	-2.1	1	i
Cc1ccc(Cl)c2c(N=Nc3ccccc3)c(O)[nH]c12	-5	-9	-3.7	17	13	-0.2	-2	1.3	8	i
Cc1ccc(NC(=O)CSc2nnc(CNC(=O)C34CC5CC(CC(C5)C3)C4)n2-c2ccc(F)cc2)cc1	15	-1	1.9	.	.	.	6	.	30	.
CC(=O)c1cnc2ncnn2c1C	0	0	-3.6	.	.	.	3	.	-22	.
COc1ccc(C(=O)O)cc1NS(=O)(=O)c1cccc2nsnc12	-7	.	6.4	.	.	.	1	.	-2	.
Cc1ccc(Cn2nc3c(cc2=O)CCc2ccccc2-3)cc1	2	5	4.5	-58	-77	-29	-6	2.1	8	i
COc1ccc(/C=C/C(=O)c2cc(F)ccc2OC(=O)c2ccc(OC)c(OC)c2)cc1OC	26	24	5.4	-11	-12	1.4	2	22	4	i
Cc1cc(C(=O)NC2CC(C)(C)Cc3c2cnn3-c2cccc(F)c2)n(C)n1 (stereo not drawn)	3	4	-1.1	-4	-11	-2.1	.	1.0	0	i
CC(NC(=O)Nc1ccc(Cl)cc1)C(c1cccs1)N1CCOCC1 (stereo not drawn)	-6	0	-2.8	2	1	-3.6	5	3.9	3	i
Cn1c(N)c(C(=O)CSc2nnc(-c3ccccc3F)n2C2CC2)c(=O)n(C)c1=O	14	-4	5.8	11	14	0.5	4	-0.9	-10	.
O=C(CNC(=O)c1ccccc1)OCc1cc(=O)n2cc(Br)ccc2n1	-4	.	2.9	2	5	-3.4	-16	-1.9	-13	i
COC(=O)c1cccc(NC(=O)CCN2C(=O)C3CC=CCC3C2=O)c1 (stereo not drawn)	.	3	.	.	.	.	-1	-1.5	.	i
C/C=C/Cn1c(SCCCc2ccccc2)nc2c1c(=O)[nH]c(=O)n2C	13	-3	?	8	2	-4.2	1	-9.4	16	i
Cn1nnnc1Sc1ncnc2scc(Br)c12	.	8	.	11	5	3.5	-5	3.6	.	i
CCOc1c(Br)cc(/C=C2/SC(=O)N(CC(=O)N3CCCC3)C2=O)cc1OC	-8	4	1.3	.	.	.	3	.	5	.
C#C[C@]1(O)CCC2C3CCC4=CC(=O)CC[C@@H]4C3CC[C@@]21C (stereo partly drawn)	.	-9	-1.5	.	.	.	0	-1.8	-8	i
O=C(CCSc1ccccc1)NCc1cccnc1	1	-6	0.3	1	-3	-1.8	-5	-2.6	1	i
COc1ccccc1N1CCN(C(=O)C(C)N(c2ccc(C)cc2)S(C)(=O)=O)CC1 (stereo not drawn)	0	36	5.4	.	.	.	-3	.	0	.
CCN(CC)CCCNC(=O)C1CCN(c2ncnc3c2sc2cccc(F)c23)CC1	3	-3	2.5	-4	1	0.2	6	3.2	53	i
COc1ccc(CCNC(=O)CSc2nn3c(=O)c(C)nnc3s2)cc1OC	-2	14	2.3	8	15	2.0	2	0.1	-10	i
c1cncc(Cc2cc3ccccc3[nH]2)c1	-1	-4	-1.3	.	.	.	0	.	-6	.
Cc1nc2c(c(=O)n1CCC(C)C)c1nc3ccccc3nc1n2Cc1ccc2c(c1)OCO2	-5	3	-0.8	.	.	.	3	.	15	.
COc1ccc(/C=C(/NC(=O)c2ccc([N+](=O)[O-])cc2)C(=O)NCCCN(C)C)cc1	27	.	2.9	4	-3	-8.1	-6	1.3	-7	i
O=C(O)c1ccc(-n2c(-c3cc(-c4ccco4)[nH]n3)n[nH]c2=S)cc1	5	96*	?	.	.	.	-1	.	-8	.
O=C(NC1CCN(CC(=O)N(c2ccccc2)c2ccccc2)CC1)c1ccc([N+](=O)[O-])cc1	5	-12	-0.7	-2	5	-1.8	2	-1.8	18	i
OCC1(CC2CCCCO2)CCN(C/C=C/c2ccccc2)CC1 (stereo not drawn)	-36	-10	2.8	20	11	1.5	-8	-1.4	-5	i
CC1CC(C)CN(CCCNC(=O)c2ccc3nc(N4CCCCC4)sc3c2)C1 (stereo not drawn)	2	2	-0.9	3	13	-1.2	-6	-3.3	7	i
COc1ccc(Br)c(C(=O)N(C)CC(=O)Nc2ccc(N3CCOCC3)cc2)c1	5	.	6.6	4	15	-1.0	-9	-0.6	-6	i
CC(C)C(=O)Nc1nc(-c2ccc([N+](=O)[O-])cc2)cs1	-16	44	2.6	-3	2	-0.9	1	3.0	16	i
COc1ccc(S(=O)(=O)N2CCCCCC2)cc1C(=O)N1CCN(c2ccccc2O)CC1	.	25	-1.5	-50	-76	-11	3	7.3	7	i
CC(C)c1ccccc1NC(=S)NN(Cc1ccccc1)c1ccccc1	24	2	6.2	.	.	.	16	.	4	.
COc1ccccc1-n1c(C)nc(=O)c(-c2ccccc2)c1C	-7	.	-0.9	.	.	.	-5	.	-4	.
O=C(CN1CCCN(Cc2ccc(F)cc2)S1(=O)=O)NC1CCCC1	1	-25	2.8	-18	-9	-6.7	0	-2.6	-2	i
Cc1cccc(N2CN(Cc3cccnc3)CNC2=S)c1C	-1	-4	4.3	.	.	.	-4	.	48	.
C=CCn1c(-c2sc3nc(C)cc(C)c3c2N)n[nH]c1=S	-2	62	-4.2	-5	-13	0.6	3	-5.7	3	i

Next section.
Compound	Calb FLC	ALR H2O2 inh	RanGTP-Impb inh	rRNA inh HTS	rRNA inh HTS OD600	rRNA inh HTS RFP	Beta apoptosis	AF4-AF9 inh	T cruzi repl	FGF22 binding
c1ccc(-n2ncc3c(NCc4ccco4)ncnc32)cc1	0	-15	-0.3	.	.	.	4	.	-11	.
Cc1ccc(-c2cc(C)nc3ncnn23)cc1	0	18	2.5	11	13	-0.8	-3	-0.1	-15	i
Cc1ccc(NC(=O)c2ccccc2[N+](=O)[O-])nc1	0	-9	?	.	.	.	-6	-3.2	-2	i
CC1(C)N(O)CC(c2cccs2)=[N+]1[O-]	49	46	3.7	.	.	.	1	.	-34	.
CN(Cc1ccccc1)c1oc(-c2ccco2)nc1C#N	3	-6	0.2	.	.	.	-3	.	-14	.
O=[N+]([O-])c1ccccc1S(=O)(=O)N1CCN(c2ccccn2)CC1	5	-3	3.0	-16	-8	-0.7	-7	3.0	-24	i
COc1cc(C=O)ccc1OCCSc1ccc(Cl)cc1	6	-1	-1.3	.	.	.	-5	.	-4	.
O=C(Nc1ccnn1C1CCN(Cc2ccn[nH]2)CC1)c1ccccc1	3	4	2.4	10	7	-2.4	-4	0.4	-14	i
O=C1CC(C(=O)N2CCN(c3ccccc3O)CC2)CN1Cc1ccccc1 (stereo not drawn)	8	25	8.2	-2	0	0.6	-2	-13	4	i
Cc1cc(C)c2cc(C(=O)N3CCC(N4CCCCC4)CC3)[nH]c2c1	-11	-3	-5.0	3	6	2.4	-9	3.5	35	i
CCOC(=O)c1cc(NC(=O)Nc2ccccn2)c(C)nc1C	-23	5	-1.2	-1	-1	-0.3	-3	-0.4	1	i
CC(=O)Nc1ccc(NC(=O)CCN2C(=O)c3ccccc3C2=O)cc1	33	-6	0.6	9	3	11	-4	-2.0	-9	i
COC(=O)c1cc(-c2ccc(C)o2)nc2ccccc12	-14	18	2.2	.	.	.	-1	-18	-12	.

Some of the compounds tested, so the mix of outcomes need not match the whole.
